TRPML1 agonist: activates the human TRPML1 channel. TRPML1-expressing cells, Ca2+ dye fluorescence, FDSS; host cell line not named in the record; reference of the full effect not given here. hit rate 0.12% among 410,000. activation, % (concentration not given with the values). Q9GZU1; in the data active = activation above about 50%; inconclusive = about 30% to 50%; inactive = below about 30%; further: 0% is about no effect; the text of the record puts the active cut at 80%
Target sequence (Q9GZU1 whole entry, looked up): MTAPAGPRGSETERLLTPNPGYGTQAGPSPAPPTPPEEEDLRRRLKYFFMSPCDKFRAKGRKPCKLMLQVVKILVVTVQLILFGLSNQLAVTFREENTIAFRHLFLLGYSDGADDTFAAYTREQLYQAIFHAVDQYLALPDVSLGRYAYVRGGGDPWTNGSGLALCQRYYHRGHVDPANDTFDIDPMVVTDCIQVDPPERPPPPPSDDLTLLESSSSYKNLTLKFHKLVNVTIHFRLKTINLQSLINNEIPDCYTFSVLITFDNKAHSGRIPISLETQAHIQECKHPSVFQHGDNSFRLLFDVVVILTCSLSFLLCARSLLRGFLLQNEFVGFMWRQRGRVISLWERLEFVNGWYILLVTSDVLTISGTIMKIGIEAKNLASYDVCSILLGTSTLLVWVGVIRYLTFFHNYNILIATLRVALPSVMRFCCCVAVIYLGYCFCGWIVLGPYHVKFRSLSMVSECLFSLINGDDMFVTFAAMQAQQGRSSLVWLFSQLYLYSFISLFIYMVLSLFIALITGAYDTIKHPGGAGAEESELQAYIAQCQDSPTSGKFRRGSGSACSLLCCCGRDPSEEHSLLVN
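Kinetic FDSS Ca2+ read in Tet-induced TRPML1-DL cells (ABD Ca8 dye plus quencher, 45-90 min RT loading): baseline, then compound, then 110 s agonist window; EC80 agonist 54-4 at 4uM final added afterwards for a 110 s antagonist window.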
PINK1 modulator: PINK1 expression modulation | PINK1 immunofluorescence, high-content cytometry, 24 h | Potency, µM (top dose mostly 76.6 µM), without a hit: at the top dose activation (PINK1 increase), usual class: activators | hit rate 0.2% among 410,000; active = well fitted activation curve with a large enough effect; inconclusive = small, poorly fitted or top-dose-only effect; inactive = flat fitted curve, though single readings scatter; cell line not stated here;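 further: potency means the concentration at half of the fitted maximal effect; % of control where 0% means no effect; nearly all actives have a fitted effect of over 65% in size; a mitochondrial uncoupler was the plate control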
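Fluorescence from anti-PINK1 antibody, together with nuclear and cell stains, was scanned on a laser-scanning cytometer. Before staining, stable-line cells were incubated 24 hours with compounds at 5 concentrations; primary antibody 12 h at 10 degrees C.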
CtBP-E1A blk: blocks the CtBP interaction with E1A; AID 651724; hit rate 0.49% among 340,000; AlphaScreen GST-E1A/His-CtBP binding, 1536-well; hits give low values; control for the full effect not named in the record; activity change, % (concentration not given with the values); in the data active means activity change below about -65%; inconclusive means about -30% to -65%; inactive means above about -30%; further: on the % scale 0 is the no-effect control and ±100 the full control effect
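AlphaScreen with 125 nM GST-E1A and 125 nM His-CtBP (5X stocks) in Tris pH 8.0, 300 mM NaCl, BSA, Tween 20, TCEP. Compounds preincubated 2 h at 37 deg C, then glutathione donor/nickel acceptor beads added for 1 h at 37 deg C in dark.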
TRPML1 inh: blocks the human TRPML1 channel | TRPML1-inducible cells, Ca2+ dye fluorescence, FDSS; hits give low values; inhibition of EC80 agonist-evoked calcium signal | hit rate 0.02% among 390,000 | activity change, negative = inhibition, % (test concentration not listed) | Q9GZU1; in the data active means activity change below about -50%; inconclusive means about -30% to -50%; inactive means above about -30%;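 further: stimulus is agonist 54-4 at its EC80 concentration; on the % scale 0 is the no-effect control and ±100 the full control effect; compound concentration not given in the record; the text of the record puts the active cut at -80%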
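Calcium fluorescence in TRPML1-DL cells induced overnight with Tet: a 110 s read after compound pin addition, then a 110 s antagonist read after challenge with 54-4 at 4 uM final (EC80).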
Six1-Eya2 blk: Six1/Eya2 interaction inhibition. Q15475+O00167. AlphaScreen GST-Six1/His-Eya2 binding, biochemical; hits give low values; control for the full effect not named in the record. activity change, % (no concentration beside the values). hit rate 0.56% among 360,000. AID 651725; in the data active = activity change below about -65%; inconclusive = about -30% to -65%; inactive = above about -30%; further: on the % scale 0 is the no-effect control and ±100 the full control effect; compound concentration not given in the record
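GST-Six1 + His-Eya2 (5X stock: 250/500 nM); Tris pH 8.0, 300 mM NaCl, 0.05% BSA, 0.02% Tween 20; GSH donor/Ni acceptor beads; 1 h 37 °C dark; AlphaScreen readout.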
D2 ag: activates the human D2 dopamine receptor. AID 624465. activation, % (test concentration not listed). P14416. hit rate 0.084% among 360,000. DiscoveRx PathHunter D2 beta-arrestin, luminescence, 90 min; 100% = 57 uM dopamine signal; in the data active = activation above about 40%; inconclusive = about 15% to 40%; inactive = below about 15%; further: compound concentration not given in the record; the text of the record calls up to 30% inactive
Target sequence (P14416 whole entry, looked up): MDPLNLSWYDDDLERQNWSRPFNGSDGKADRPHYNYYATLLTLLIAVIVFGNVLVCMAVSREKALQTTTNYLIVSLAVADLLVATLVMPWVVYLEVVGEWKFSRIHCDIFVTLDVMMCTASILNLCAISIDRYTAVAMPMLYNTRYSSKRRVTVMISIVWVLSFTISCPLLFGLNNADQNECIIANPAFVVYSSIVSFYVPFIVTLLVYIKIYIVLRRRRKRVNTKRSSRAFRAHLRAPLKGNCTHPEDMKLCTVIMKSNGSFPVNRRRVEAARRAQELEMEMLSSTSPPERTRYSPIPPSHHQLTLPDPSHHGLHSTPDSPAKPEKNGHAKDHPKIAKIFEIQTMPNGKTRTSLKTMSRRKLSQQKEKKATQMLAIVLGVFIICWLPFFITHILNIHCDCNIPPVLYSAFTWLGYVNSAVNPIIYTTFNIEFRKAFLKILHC
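DiscoveRx PathHunter D2 beta-arrestin cells (2,100/well) attached overnight, then compound-stimulated 90 min at 37 C in HBSS/10 mM HEPES/0.1% Tween-20 buffer; beta-galactosidase complementation read by luminescence after 1 h at ambient temperature. Dopamine 57 uM final (EC100) as control.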
Active calls of the source: *; & = joins results of further samples; [ ] = dose if it differs, or a comment.

For COc1ccc(Cn2c(SCC#N)nc3ccc(N4CCOCC4)cc3c2=O)cc1 the results were TRPML1 agonist -1.3, PINK1 modulator 3.7%, CtBP-E1A blk -8.0, TRPML1 inh 10.1, Six1-Eya2 blk -5.0 and D2 ag 2.0.
Screening Cn1nnnc1SCC(=O)Nc1ccccc1C(N)=O returned TRPML1 agonist -0.2, PINK1 modulator 1.3%, TRPML1 inh -14.9, Six1-Eya2 blk 0.7 and D2 ag -3.3.
For O=S(=O)(N/N=C/c1ccc(OC2CSC2)cc1)c1ccccc1 the results were TRPML1 agonist -1.4, PINK1 modulator 1.9%, CtBP-E1A blk 0.0, TRPML1 inh 0.1, Six1-Eya2 blk 2.6 and D2 ag 0.8.
For O=C(NCc1cccc(F)c1)c1[nH]c(C(F)(F)F)nc1-c1ccccc1 the results were TRPML1 agonist -0.4, PINK1 modulator 7.2%, CtBP-E1A blk -12.6, Six1-Eya2 blk -1.1 and D2 ag 1.2.
Screening COc1ccc(OC)c(S(=O)(=O)Nc2cccc(-c3ccc(N4CCCCCC4)nn3)c2)c1 returned TRPML1 agonist 0.1&0.5, PINK1 modulator 2.5%&1.2%, TRPML1 inh 2.3&29.5, Six1-Eya2 blk -14.2 and D2 ag 1.3.
`Nn1c(SCC(=O)NCc2ccc3c(c2)OCO3)nnc1C(F)(F)F` gave TRPML1 agonist 0.0, PINK1 modulator 1.5%, CtBP-E1A blk 2.7, TRPML1 inh -11.7, Six1-Eya2 blk 6.6 and D2 ag -1.9.
Screening O=C(Nc1nnc(SCc2ccc(Cl)cc2)s1)C1CCCO1 (configuration not stated) returned TRPML1 agonist 1.8, PINK1 modulator -1.0%, CtBP-E1A blk 1.9, TRPML1 inh 6.7, Six1-Eya2 blk 11.1 and D2 ag -4.2.
For COc1ccc(C2SCC(=O)N2CCCN(C)C)cc1 (configuration not stated) the results were TRPML1 agonist -0.5, PINK1 modulator 0.2%, CtBP-E1A blk -1.1, TRPML1 inh 29.5, Six1-Eya2 blk 7.6 and D2 ag -0.6.
CC1(C(=O)NS(=O)(=O)c2cccs2)CCN1C(=O)CC1CCCCC1 (configuration not stated) was read as TRPML1 agonist -0.5, PINK1 modulator -0.4%, CtBP-E1A blk 1.5, TRPML1 inh -0.5, Six1-Eya2 blk 4.2 and D2 ag -3.5.
CN(Cc1ccccc1)c1nc2c(c(=O)[nH]c(=O)n2C)n1CCOc1ccccc1 was read as TRPML1 agonist -0.8, PINK1 modulator -2.0%, CtBP-E1A blk 4.8, TRPML1 inh -5.4, Six1-Eya2 blk -9.0 and D2 ag -2.5.
`Cc1nnc(NC(=O)CCC(=O)NC2CCCCCCC2)s1` gave TRPML1 agonist -0.6, PINK1 modulator -0.2%, CtBP-E1A blk 3.7, TRPML1 inh 1.5, Six1-Eya2 blk 0.1 and D2 ag 0.3.
COC(=O)c1sccc1NC(=S)Nc1ccc(F)cc1F was read as TRPML1 agonist 2.2, PINK1 modulator 1.7%, TRPML1 inh 14.1, Six1-Eya2 blk -17.3 and D2 ag -2.3.

Reprinted from the part before: 3 compounds, followed by the next part.
CN(Cc1ccccc1)c1nc2c(c(=O)[nH]c(=O)n2C)n1CCOc1ccccc1 was read as TRPML1 agonist -0.8, PINK1 modulator -2.0%, CtBP-E1A blk 4.8, TRPML1 inh -5.4, Six1-Eya2 blk -9.0 and D2 ag -2.5.
`Cc1nnc(NC(=O)CCC(=O)NC2CCCCCCC2)s1` gave TRPML1 agonist -0.6, PINK1 modulator -0.2%, CtBP-E1A blk 3.7, TRPML1 inh 1.5, Six1-Eya2 blk 0.1 and D2 ag 0.3.
COC(=O)c1sccc1NC(=S)Nc1ccc(F)cc1F was read as TRPML1 agonist 2.2, PINK1 modulator 1.7%, TRPML1 inh 14.1, Six1-Eya2 blk -17.3 and D2 ag -2.3.
Screening Cc1ccc2c(c1)C(c1ccncc1)=NNC(c1ccc(F)cc1)=N2 returned TRPML1 agonist 1.6, PINK1 modulator -0.1%, CtBP-E1A blk 8.6, TRPML1 inh 2.9, Six1-Eya2 blk -1.7 and D2 ag -1.0.
For COc1ccccc1NC(=O)Cn1c(=O)n(Cc2ccccc2)c(=O)c2ccccc21 the results were TRPML1 agonist 0.5, PINK1 modulator -0.2% and TRPML1 inh 15.8.
`COCCOc1cc(NC(=O)CS(=O)CC(=O)N(C)C)c(Cl)cc1Cl` (configuration not stated) gave TRPML1 agonist -0.3, PINK1 modulator -1.9%, CtBP-E1A blk 5.1, TRPML1 inh -1.8, Six1-Eya2 blk 4.5 and D2 ag 0.8.
Screening CN(Cc1c(F)cccc1Cl)C(=O)c1ccc(NC(=O)CC2SC(N3CCCCC3)=NC2=O)cc1 (configuration not stated) returned TRPML1 agonist 1.2, PINK1 modulator -0.5%, CtBP-E1A blk 0.0, TRPML1 inh 1.8, Six1-Eya2 blk 7.8 and D2 ag 1.6.
For O=C(c1ccco1)N1CCN(Cc2nc3ccccc3c(=O)n2-c2ccc(F)cc2)CC1 the results were TRPML1 agonist 0.4, PINK1 modulator 4.5%[38.3 µM], CtBP-E1A blk 1.6, TRPML1 inh 17.1, Six1-Eya2 blk -0.9 and D2 ag -1.3.
Screening COCCCNC(=O)C1CCN(Cc2nc(-c3ccc(OC)c(OC)c3)oc2C)CC1 returned TRPML1 agonist -0.2, PINK1 modulator 1.3% and TRPML1 inh 3.2.
For O=C(Nc1c(F)cc(F)cc1Br)c1cc(-c2ccc(O)cc2)on1 the results were TRPML1 agonist 0.4, PINK1 modulator 7.3%, CtBP-E1A blk -0.1, TRPML1 inh 8.3, Six1-Eya2 blk -11.5 and D2 ag 6.3.
COc1ccc(-c2noc(CCC(=O)N3CCN(c4ccccc4)CC3)n2)cc1 was read as TRPML1 agonist -0.7, PINK1 modulator 4.7%, CtBP-E1A blk 6.0, TRPML1 inh -1.3, Six1-Eya2 blk -0.7 and D2 ag -1.1.
`O=C(Nc1ccc([N+](=O)[O-])cc1)c1cn(-c2ccccc2)nc1-c1cc2ccccc2o1` gave TRPML1 agonist -0.1, PINK1 modulator inconclusive, CtBP-E1A blk 5.8, TRPML1 inh -13.4, Six1-Eya2 blk 4.1 and D2 ag 0.4.
Cc1nc(COc2ccccc2Cl)sc1-c1ccnc(N)n1 was read as TRPML1 agonist 1.9, PINK1 modulator -0.4%, CtBP-E1A blk -0.2, TRPML1 inh 8.8, Six1-Eya2 blk 4.3 and D2 ag -1.9.
For CC1=NN(c2nc(-c3ccc(C)cc3)cs2)C(=O)C1N=Nc1ccccc1O (configuration not stated) the results were TRPML1 agonist 2.5, PINK1 modulator 3.1%, CtBP-E1A blk -7.9, TRPML1 inh -4.9, Six1-Eya2 blk -28.7 and D2 ag -1.0.
Screening OCc1nc2ccccc2n1Cc1ccc(Cl)cc1 returned TRPML1 agonist -0.9, PINK1 modulator -0.4%, CtBP-E1A blk 5.7, TRPML1 inh -1.0, Six1-Eya2 blk 13.8 and D2 ag -3.3.
Screening COCC1CCN(C(=O)c2cc(COc3cc(C)c(Cl)c(C)c3)on2)C1 (configuration not stated) returned TRPML1 agonist 0.5, PINK1 modulator 3.8%, CtBP-E1A blk 9.9, TRPML1 inh 67.3, Six1-Eya2 blk 3.7 and D2 ag 6.2.
COC(=O)c1ccc(C(=O)OC)c(NC(=O)c2cnn3c(C(F)F)cc(-c4ccc(C)cc4)nc23)c1 was read as TRPML1 agonist -0.2, PINK1 modulator 0.5% and TRPML1 inh 11.9.
CC(=Cc1ccccc1)C=C1SC(=S)N(CCCC(=O)Nc2ccc(C(=O)O)c(O)c2)C1=O was read as TRPML1 agonist 0.4, PINK1 modulator 1.2%, CtBP-E1A blk -20.3, TRPML1 inh -10.9, Six1-Eya2 blk -17.3 and D2 ag -3.4.
COc1ccc(C=NN=C2c3ccccc3-c3ccccc32)cc1O was read as TRPML1 agonist 0.5, PINK1 modulator -2.8%, CtBP-E1A blk -25.8, TRPML1 inh 9.2, Six1-Eya2 blk -29.4 and D2 ag 0.2.
For CC12CCC(C(=O)Nc3ccccc3Cl)(C(Br)C1=O)C2(C)C (configuration not stated) the results were TRPML1 agonist -0.5, PINK1 modulator 0.3%, CtBP-E1A blk -3.8, TRPML1 inh -21.0, Six1-Eya2 blk 5.1 and D2 ag -0.9.
`CCOC(=O)c1ccccc1NC(=O)/C(C)=C/C(=O)O` gave TRPML1 agonist -1.0, PINK1 modulator 4.2%, CtBP-E1A blk 6.1, TRPML1 inh 5.4, Six1-Eya2 blk 6.0 and D2 ag -2.6.
`Fc1ccc(-c2csc(Nc3ccccn3)n2)c(F)c1` gave TRPML1 agonist 0.9, PINK1 modulator 5.0%, CtBP-E1A blk -0.3, TRPML1 inh -1.0, Six1-Eya2 blk -1.5 and D2 ag 3.4.
CCC(C)Sc1cc(-c2nc3cc(C)ccn3c2NC2CCCCC2)ccc1OC (configuration not stated) was read as TRPML1 agonist -0.2&1.4, PINK1 modulator 12.6µM*, CtBP-E1A blk -0.9&-6.1, TRPML1 inh -3.9, Six1-Eya2 blk -16.0&-17.2 and D2 ag 10.5.
CSCCC(NC(=O)c1ccc(Cl)cc1)C(=O)OCC(=O)Nc1cc(Cl)ccc1C (configuration not stated) was read as TRPML1 agonist 2.4, PINK1 modulator -0.8%, CtBP-E1A blk -19.1, TRPML1 inh 13.2, Six1-Eya2 blk -3.5 and D2 ag -4.5.
For Cc1ccc(CN(CC(=O)NCc2ccccn2)S(=O)(=O)c2ccccc2)cc1 the results were TRPML1 agonist 0.9, PINK1 modulator 0.3%, CtBP-E1A blk 0.0, TRPML1 inh 19.6, Six1-Eya2 blk 8.2 and D2 ag -4.4.
For C=CCn1c(SCC(=O)Nc2ccc(C(=O)O)cc2)nc2scc(-c3ccccc3)c2c1=O the results were TRPML1 agonist 0.5, PINK1 modulator 0.3%, CtBP-E1A blk -21.1, TRPML1 inh 4.6, Six1-Eya2 blk -15.6 and D2 ag -0.4.
Cc1nnc2c(NCCc3ccccc3)nc3ccccc3n12 was read as TRPML1 agonist 0.5, PINK1 modulator 8.4%, CtBP-E1A blk -7.8, TRPML1 inh 1.6, Six1-Eya2 blk -0.6 and D2 ag 0.0.
`C/C(=N\NC(=O)c1cccc(S(=O)(=O)N2CCOCC2)c1)c1ccc(OCC(=O)N(C)C)cc1` gave TRPML1 agonist -0.4, PINK1 modulator -0.5%, CtBP-E1A blk 2.8, TRPML1 inh -3.9, Six1-Eya2 blk 5.8 and D2 ag -0.1.
O=C1Nc2ccc(F)cc2C12SCCS2 was read as TRPML1 agonist 0.1, PINK1 modulator 3.9%[38.3 µM], CtBP-E1A blk -3.9, TRPML1 inh -5.8, Six1-Eya2 blk 0.7 and D2 ag -2.5.
Screening CCOc1ccc(-c2nc(SCC(=O)NC3CCCC3)c(-c3ccccc3)[nH]2)cc1OC returned TRPML1 agonist -0.3, PINK1 modulator 0.1% and TRPML1 inh -16.1.
For Cc1ccc(NC(=O)c2c(C)oc3ccc(O)c(CN4CCCCCC4)c23)c(C)c1 the results were TRPML1 agonist -0.2, PINK1 modulator 0.8% and TRPML1 inh 2.2.
